Mtb MbtI inh = blocks the Mycobacterium tuberculosis siderophore enzyme MbtI; 100,000 compounds, 0.89% hits; purified MbtI enzyme, fluorescence intensity read-out; AID 493033; P9WFX0; inhibition, %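 (about 17 µg/mL by stock and volumes)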;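 active = above 50% in both replicates, above 80% if mildly self-fluorescent; inactive = the rest, strongly fluorescent compounds included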;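 also: 0% = mean of negative and 100% = mean of positive controls; one replicate is shown; some compounds called inactive have numbers as strong as hits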
Target sequence (P9WFX0 whole entry, looked up): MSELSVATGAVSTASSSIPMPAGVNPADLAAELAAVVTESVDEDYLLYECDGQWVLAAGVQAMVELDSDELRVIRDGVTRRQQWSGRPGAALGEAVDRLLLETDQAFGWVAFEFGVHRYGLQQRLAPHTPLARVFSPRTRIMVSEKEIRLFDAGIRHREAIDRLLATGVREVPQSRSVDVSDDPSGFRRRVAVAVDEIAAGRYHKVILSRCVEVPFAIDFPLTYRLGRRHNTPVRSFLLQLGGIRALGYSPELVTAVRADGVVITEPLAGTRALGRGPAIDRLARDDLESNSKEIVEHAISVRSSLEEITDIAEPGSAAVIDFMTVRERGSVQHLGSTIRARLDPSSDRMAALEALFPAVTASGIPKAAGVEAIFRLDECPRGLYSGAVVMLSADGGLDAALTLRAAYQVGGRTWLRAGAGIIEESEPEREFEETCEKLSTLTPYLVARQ
PV pol inh = poliovirus RNA polymerase inhibition; P03300; poliovirus polymerase elongation, fluorescence polarization; hits give low values; % elongation, % (compound at 16.7 µg/mL); 150,000 compounds, 0.66% hits; AID 588519; in the data active = % elongation below about 90%; also: some results filed as inactive read as strong as hits
Target sequence (P03300 1749-2209 limits assumed): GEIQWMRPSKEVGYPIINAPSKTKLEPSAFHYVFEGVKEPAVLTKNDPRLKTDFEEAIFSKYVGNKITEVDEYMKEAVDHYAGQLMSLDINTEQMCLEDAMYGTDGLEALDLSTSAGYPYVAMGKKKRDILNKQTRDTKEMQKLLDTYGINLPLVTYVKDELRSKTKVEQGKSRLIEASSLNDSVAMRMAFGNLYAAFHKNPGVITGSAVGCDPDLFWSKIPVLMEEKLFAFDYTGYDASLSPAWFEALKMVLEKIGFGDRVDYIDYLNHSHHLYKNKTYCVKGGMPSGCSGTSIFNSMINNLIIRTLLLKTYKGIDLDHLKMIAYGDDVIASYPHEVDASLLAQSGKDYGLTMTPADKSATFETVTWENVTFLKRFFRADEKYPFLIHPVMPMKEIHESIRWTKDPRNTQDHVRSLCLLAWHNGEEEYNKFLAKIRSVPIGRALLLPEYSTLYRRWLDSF
Mtb MenB inh = Mtb MenB enzyme inhibition; inhibition, %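 (about 12 µg/mL by stock and volumes)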; MenB enzyme assay, absorbance read-out; some hits fall short of the stated cut; 100,000 compounds, 0.43% hits;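 active = mean of two replicates above 30%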;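 also: 0% = no compound and 100% = wells with inactive enzyme; the first replicate is given; strong numbers were not always called active; inactives centre near -10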
PV pol inh intensity = further read-out of PV pol inh, marked with its call; % elongation; measured here: total intensity read-out; formula for this scale not given here;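 total fluorescence in place of polarization; lower means less elongation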
* marks the source's active call; other numbers are inactive results; / = not tested or not shown.

SMILES | Mtb MbtI inh | PV pol inh | PV pol inh intensity | Mtb MenB inh
COC(=O)C1=C(C)NC(C)=C(C(=O)OC)C1c1ccc(C(C)C)cc1 | 80 | 102 | 100 | -14
O=C(O)C1(NS(=O)(=O)c2ccc(Cl)cc2)CCCCC1 | -3 | 102 | 102 | -2
CCc1ccc(NC2=NS(=O)(=O)c3ccccc32)cc1 | 1 | 101 | 104 | -43
CCN1CCN(C(=O)c2csc3c2CCCCC3)CC1 | -16 | 101 | 104 | 5
CCc1nc2sc(C(=O)Nc3ccc(OC(F)(F)F)cc3)c(N)c2cc1C | / | 102 | 105 | -20
COc1ccc(-n2c(=O)c(C#N)cc3c(=O)n4ccccc4nc32)cc1Cl | -7 | 89 | 187 | -14
O=C(CCCc1nc(-c2ccccc2)no1)NC1CCCC1 | -10 | 104 | 109 | -18
O=C(Cn1c2c(c(-c3ccccc3Cl)cc1=O)CCC2)NC1CCCC1 | 105 | 100 | 101 | 3
O=C(Cc1n[nH]c(=O)c2ccccc12)OCCOc1cccc(Cl)c1 | -1 | 99 | 103 | 0
COc1cc(-c2nnc(COC(=O)CSc3ccc4ccccc4c3)o2)cc(OC)c1OC | -16 | 99 | 103 | -35
Cc1cccc(N(C)c2nc3ccc(Cl)cc3n3cnnc23)c1 | 2 | 103 | 97 | -42
COc1cccc(CN(C)C(=O)COC(=O)c2cc(C)cc(C)c2)c1 | 4 | 107 | 97 | 5
CC(=O)Nc1ccc(C(=O)CN2C(=O)NC(C)(c3ccc4c(c3)OCCO4)C2=O)c(F)c1 (stereo not given) | -4 | 101 | 102 | -6
CCOc1cc(CNS(=O)(=O)c2ccc3c(c2)CCCC(=O)N3)cc(OCC)c1OCC | 8 | 102 | 104 | -28
O=C1c2ccccc2CCc2sccc21 | 8 | 101 | 100 | -23
CC(C)(C)C(=O)/C=C/Nc1ccccc1C(N)=O | -123 | 99 | 102 | 7
CCC(=O)Nc1cc(-c2nc3cccnc3s2)ccc1C | 88 | 102 | 104 | 10
CCOC(=O)C1=C(C)NC2=C(C(=O)C(C(=O)OCC)C(c3ccco3)C2)C1c1ccc2c(c1)OCO2 (stereo not given) | -47 | 98 | 98 | -23
NC(=O)c1c(/N=C/C(Br)=C/c2ccccc2)sc2c1CCC2 | 14 | 103 | 108 | /
CCOc1ccc(-c2cc(NC(=O)Cn3ncc4c(=O)oc5ccc(C)cc5c43)on2)cc1 | -2 | 103 | 103 | -18
CC1(C)OC(C)(C)/C(=C\c2ccc(F)cc2)C1=O | 5 | 100 | 100 | -13
CCc1ccc(NC(=O)NC2CCN(C(C)C)CC2)cc1 | -9 | 101 | 103 | 9
CN(C(=O)c1cccc(S(=O)(=O)N(C)C)c1)c1ccccc1 | -8 | 100 | 103 | 5
Cn1c(SCc2ccccc2Cl)nnc1C(O)C(O)c1nnc(SCc2ccccc2Cl)n1C (stereo not given) | -4 | 97 | 100 | -6
N#CC1=C(N)OC2=C(CCCC2=O)C1c1ccccc1C(F)(F)F (stereo not given) | / | 106 | 107 | -18
COCCn1c(N)c(-c2nc3ccccc3[nH]2)c(O)c1N=Nc1cc(OC)c(OC)c(OC)c1 | 1 | 44 | 243 | -95
Cc1cc2c(=O)n(CC(=O)Nc3ccc(F)cc3F)cnc2s1 | -10 | 103 | 105 | 8
O=C(Cc1ccc2c(c1)OCCO2)Nc1ccc(OC(F)(F)F)cc1 | -8 | 108 | 106 | -16
Cn1c(=O)c(-[n+]2ccccc2)c([O-])c2ccccc21 | -25 | 102 | 103 | -17
O=C1CCC2(C(=O)O)Sc3ccccc3N12 (stereo not given) | -5 | 100 | 100 | -14
O=C(Nc1ccc(Cl)cc1)C(F)(F)F | 9 | 99 | 101 | -7
CC1CCC(C(C)C)C(OC(=O)CSC#N)C1 (stereo not given) | 10 | 99 | 99 | /
Cc1ccc(N(C(=O)Cn2nnc3ccccc32)C(C(=O)NCc2ccco2)c2cccnc2)cc1C (stereo not given) | 0 | 103 | 103 | -35
CCn1c(SCC(=O)N(C)Cc2ccccc2)nc2ccccc21 | 3 | 106 | 98 | -35
Cc1ccc(N2C(=O)c3ccccc3C2=O)cc1 | -3 | 98 | 104 | 13
COc1cc(SC)ccc1C(=O)NCC#N | 3 | 107 | 100 | -16
N#Cc1c(Nc2ccccc2)sc2c(N)nc(N)nc12 | / | 104 | 105 | -10
O=C(O)CCC(=O)NC1CCCCNC1=O (stereo not given) | -12 | 107 | 113 | 8
Cn1ccnc1SCC(=O)NC1CCCc2ccccc21 (stereo not given) | -6 | 103 | 103 | -55
Cc1ccc2c(CC(=O)NCC(=O)OCc3ccccc3)coc2c1 | -1 | 101 | 102 | -23
CN(C)C(=O)COC(=O)c1ccccc1C(=O)c1ccccc1 | -12 | / | / | -1
CCC(C)C12CN3CCN(CC(C)(C3)C1O)C2 (stereo not given) | -6 | 105 | 102 | -27
Cc1c(C(=O)c2ccc3c(c2)OCCO3)oc2ccc(Cl)cc12 | 21 | 103 | 96 | -14
CC1CC(=O)N(CC(N)=O)c2ccccc2S1(=O)=O (stereo not given) | 2 | 104 | 99 | -6
O=C(CCc1cn(Cc2ccc(F)cc2)c2ccccc12)NC1CCCC1 | 2 | 101 | 102 | -17
COc1ccc(C(=O)CCN2CCC(C)CC2)cc1 | 11 | 102 | 108 | -12
C(=C\c1ccccc1)/C=N/N1CCN(Cc2cccc3ccccc23)CC1 | 15 | 104 | 105 | -17
Cc1cc(C)n2nc(SCC(=O)N3CCC(C)CC3)nc2n1 | 26 | 108 | 104 | -18
COc1ccc(CSc2nc(O)cc(=O)n2CC(C)C)cc1F | 5 | 104 | 97 | -87
O=C(CSCc1nc2c(nnn2Cc2ccc(F)cc2)c(=O)[nH]1)NC1CCCCCC1 | -4 | 102 | 106 | -20

The results go on:
SMILES | Mtb MbtI inh | PV pol inh | PV pol inh intensity | Mtb MenB inh
O=C(Cn1cc(/C=C2\SC(=Nc3ccccc3)N(Cc3ccco3)C2=O)c2ccccc21)N1CCOCC1 | -1 | 103 | 104 | -14
CCCCN(CC)Cc1c(O)ccc2c(-c3ccccc3)cc(=O)oc12 | 6 | 103 | 102 | -11
Cc1cc(C)c(C#N)c(SCc2nc(COc3cccc(C(F)(F)F)c3)no2)n1 | -67 | 109 | 112 | -18
CCc1ccc(C=C2C(=O)N(C)C(=O)N(C)C2=O)cc1 | 10 | 99 | 103 | -62
N#Cc1c(C(F)(F)F)cc(=O)n2c1[nH]c1ccccc12 | 89 | 98 | 108 | 3
CCOC(=O)N1CCN(S(=O)(=O)c2cc(OC)ccc2OC)CC1 | 2 | 100 | 101 | -5
CC1=C(c2ccc(C)c(C)c2)S(=O)(=O)NC1=NCC(=O)NCCc1ccco1 | 15 | 103 | 107 | -1
N#Cc1c(NC(=O)/C=C/c2ccco2)sc2c1CCCC2 | 36 | 103 | 108 | -83
N#Cc1c(/N=C/c2ccc3c(c2)OCO3)oc(-c2ccccc2)c1-c1ccccc1 | -5 | 99 | 104 | 3
O=C(NNc1nc2ccccc2o1)c1cccc(Cl)c1 | 3 | 101 | 103 | 11
C=CCc1c(CCC)nc(SCC2CC2)[nH]c1=O | 7 | 97 | 102 | -18
CC(C)(C)c1cc(NC(=O)COC(=O)C2CC2)n(-c2ccccc2)n1 | 4 | 102 | 99 | 4
CN(C)CCOC(=O)c1cc2ccccc2o1 | / | 103 | 100 | -3
Cc1sc2nc3c4ccccc4c(NCC4CCCO4)nn3c(=O)c2c1C (stereo not given) | 3 | 101 | 106 | -8
COCCN1C(=O)c2ccccc2C(C(=O)NCc2ccco2)C1c1c[nH]c2ccccc12 (stereo not given) | -13 | 103 | 104 | -16
OCCn1c(SCc2ccccc2)nc2ccccc21 | 2 | 102 | 104 | -61
COC(=O)C(Cc1ccccc1)N=Cc1c(O)[nH]c(=O)[nH]c1=O (stereo not given) | 17 | 103 | 101 | -16
CN(CC(=O)NCCc1ccc(S(N)(=O)=O)cc1)c1ccccc1 | -28 | 105 | 103 | -17
Cc1ccc2c(c1)NC(=O)C(CC(=O)NCCCN1CCN(c3cc(Cl)ccc3C)CC1)O2 (stereo not given) | 11 | 104 | 105 | -7
Nc1ccccc1C(=O)NCCc1ccncc1 | -1 | 110 | 117 | -5
CC(C)(C)NC(=O)CN1CCC(n2nnc3cc(F)ccc32)CC1 | 5 | 100 | 102 | 5
COc1ccc(CN(C(=O)c2cc3sccc3n2C)C2CC(C)(C)NC(C)(C)C2)cc1 | 4 | 102 | 102 | -11
CCC(C)NC(=O)C1CCN(Cc2nc(-c3ccc(OC)c(OC)c3)no2)CC1 (stereo not given) | -15 | 103 | 103 | -2
N#CCCn1cc(/C=C2\N=C(c3ccccc3)OC2=O)c(-c2ccc(F)cc2)n1 | -3 | 103 | 112 | 7
C=CCNC(=O)C1CCN(S(=O)(=O)c2cccc3nsnc23)CC1 | -5 | 97 | 102 | -14
Cc1ccccc1CN1C=C(C(N)=O)C(C(F)(F)F)CC1 (stereo not given) | 6 | 100 | 106 | 6
COC(=O)CSc1nnc2n(Cc3ccc(C)cc3)c(=O)c3ccccc3n12 | 4 | 104 | 98 | -22
CC(=O)Nc1ccc(O[C@@H]2O[C@H](CO)[C@@H](O)[C@H](O)[C@H]2NC(C)=O)cc1 | -4 | 102 | 103 | 5
CC(C)CNC(=O)c1cc(-c2ccc(Br)cc2)on1 | -9 | 100 | 104 | 15
CC1=C(C#N)C(c2ccccc2C(F)(F)F)C2=C(O1)C(=O)CCC2 (stereo not given) | / | 105 | 110 | 1

Filtered by structure: the compounds so far containing a cyano group (11)
SMILES | Mtb MbtI inh | PV pol inh | PV pol inh intensity | Mtb MenB inh
COc1ccc(-n2c(=O)c(C#N)cc3c(=O)n4ccccc4nc32)cc1Cl | -7 | 89 | 187 | -14
N#CC1=C(N)OC2=C(CCCC2=O)C1c1ccccc1C(F)(F)F (stereo not given) | / | 106 | 107 | -18
CC1CCC(C(C)C)C(OC(=O)CSC#N)C1 (stereo not given) | 10 | 99 | 99 | /
COc1cc(SC)ccc1C(=O)NCC#N | 3 | 107 | 100 | -16
N#Cc1c(Nc2ccccc2)sc2c(N)nc(N)nc12 | / | 104 | 105 | -10
Cc1cc(C)c(C#N)c(SCc2nc(COc3cccc(C(F)(F)F)c3)no2)n1 | -67 | 109 | 112 | -18
N#Cc1c(C(F)(F)F)cc(=O)n2c1[nH]c1ccccc12 | 89 | 98 | 108 | 3
N#Cc1c(NC(=O)/C=C/c2ccco2)sc2c1CCCC2 | 36 | 103 | 108 | -83
N#Cc1c(/N=C/c2ccc3c(c2)OCO3)oc(-c2ccccc2)c1-c1ccccc1 | -5 | 99 | 104 | 3
N#CCCn1cc(/C=C2\N=C(c3ccccc3)OC2=O)c(-c2ccc(F)cc2)n1 | -3 | 103 | 112 | 7
CC1=C(C#N)C(c2ccccc2C(F)(F)F)C2=C(O1)C(=O)CCC2 (stereo not given) | / | 105 | 110 | 1

Source: PubChem BioAssay (ICCB-Longwood Screening Facility, Harvard Medical School)

Random draw from the library (roughly 1.9% active in at least one column).
